NPYLR7 agonist: mosquito NPYLR7 agonism. HEK293T NPYLR7/Galpha15, GCaMP6s calcium fluorescence. AID 1259423. 270,000 compounds, 0.15% hits. activation, % at 10 µM; in the data active = activation above about 40%;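 also: 0% = vehicle and 100% = reference agonist at the receptor; some compounds past the cut are filed as inactive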
NPYLR7 agonist max-min: also measured in NPYLR7 agonist; calls as there; activation, %; measured here: Max-Min RFU normalised activation; some inactives read as strong as hits;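 span of the calcium signal over five minutes; 0% = vehicle and 100% = native peptide agonist; compound fluorescence can raise it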
The depositor's hits bear a star; & = joins results of further samples.

Screening CC(=O)N1c2ccccc2C2(O)NC(=S)N(C)C12 (stereo unspecified) returned NPYLR7 agonist 2 and NPYLR7 agonist max-min 30.
C=CCN(Cc1c(F)cccc1F)Cc1cccn1Cc1ccc(C(F)(F)F)cc1 was read as NPYLR7 agonist 1 and NPYLR7 agonist max-min 9.
For Nc1nccnc1C(=O)Nc1ccc(SC2CCCC2)cc1 the results were NPYLR7 agonist 6 and NPYLR7 agonist max-min 2.
For CC(C)CCN(Cc1c(-c2ccccc2)noc1N1CCCCC1)C(=O)c1ccc(C(F)(F)F)cc1 the results were NPYLR7 agonist 2 and NPYLR7 agonist max-min 0.
COC(=O)c1sc2ccccc2c1S(=O)(=O)Nc1ccc(N(C)C)cc1 was read as NPYLR7 agonist -5 and NPYLR7 agonist max-min -4.
For N#Cc1ccc(CN(Cc2ccc(C#N)cc2)S(=O)(=O)c2cc(F)ccc2F)cc1 the results were NPYLR7 agonist 6 and NPYLR7 agonist max-min 4.
Screening Cc1ccccc1-n1ncc2c1CC(C)(C)CC2NC(=O)c1snnc1C (stereo unspecified) returned NPYLR7 agonist 16 and NPYLR7 agonist max-min 6.
`Cc1cccc(C)c1OCC(=O)N=Nc1c(O)[nH]c2ccc(Br)cc12` gave NPYLR7 agonist -1 and NPYLR7 agonist max-min -7.
For O=[N+]([O-])c1cc(S(=O)(=O)N2CCCC2)ccc1NN=Cc1c(-c2ccccc2)nc2sccn12 the results were NPYLR7 agonist -9 and NPYLR7 agonist max-min -14.
`CCOC(=O)c1oc2ccc(Br)cc2c1COC(=O)C1=COCCO1` gave NPYLR7 agonist -4 and NPYLR7 agonist max-min -4.
`COCC(=O)NC1CCN(c2ccccc2C(=O)N2CCN(c3ccccn3)CC2)CC1` gave NPYLR7 agonist 0 and NPYLR7 agonist max-min 11.
Screening CN(Cc1cc(C(C)(C)C)n[nH]1)C(=O)COc1cccnc1 returned NPYLR7 agonist 0 and NPYLR7 agonist max-min 0.
CCCCC(=O)Nc1cccc(Cl)c1S(C)(=O)=O was read as NPYLR7 agonist 4 and NPYLR7 agonist max-min 2.
For CCNC(=O)c1cn(CCc2ccccc2)cc(C(=O)NCC2OCCc3ccccc32)c1=O (stereo unspecified) the results were NPYLR7 agonist -11 and NPYLR7 agonist max-min -9.
For Cc1c(NC(=O)C(C)(C)C)cccc1C(=O)NCC1CCCN(C)C1 (stereo unspecified) the results were NPYLR7 agonist 8 and NPYLR7 agonist max-min 8.
Screening COc1ccc(OCCN2CCC(C(=O)NC(c3ccc(F)cc3)c3cnccn3)CC2)cc1 (stereo unspecified) returned NPYLR7 agonist 12 and NPYLR7 agonist max-min 1.
For CN(Cc1ccc(N(C)C)cc1)C(=O)CCl the results were NPYLR7 agonist -1 and NPYLR7 agonist max-min -3.
Screening O=C(c1ccc(CSc2c(Cl)cccc2Cl)cc1)N1C2CCC1CC(Oc1ccc(F)cc1F)C2 (stereo unspecified) returned NPYLR7 agonist 4 and NPYLR7 agonist max-min -1.
For CCc1ccc(S(=O)(=O)c2cnc(SCC(=O)Nc3cccc(Cl)c3)[nH]c2=O)cc1 the results were NPYLR7 agonist 0 and NPYLR7 agonist max-min -4.
Cc1nnc(NC(=O)CN2CCN(Cc3nc(C(C)(C)C)cs3)CC2)s1 was read as NPYLR7 agonist -18 and NPYLR7 agonist max-min -20.

For reference, part of the list above:
Screening CC(=O)N1c2ccccc2C2(O)NC(=S)N(C)C12 (stereo unspecified) returned NPYLR7 agonist 2 and NPYLR7 agonist max-min 30.
C=CCN(Cc1c(F)cccc1F)Cc1cccn1Cc1ccc(C(F)(F)F)cc1 was read as NPYLR7 agonist 1 and NPYLR7 agonist max-min 9.
For Nc1nccnc1C(=O)Nc1ccc(SC2CCCC2)cc1 the results were NPYLR7 agonist 6 and NPYLR7 agonist max-min 2.

Next section.
Screening CCCC1(C2CCN(Cc3nccn3C(C)C)CC2)NC(=O)NC1=O (stereo unspecified) returned NPYLR7 agonist 6 and NPYLR7 agonist max-min -4.
For Cc1nc2c(=O)n(CC(=O)c3ccc4c(c3)CCCC4)nc(-c3ccco3)c2s1 the results were NPYLR7 agonist -1 and NPYLR7 agonist max-min -4.
`O=C(c1n[nH]c(=O)c2ccccc12)N(Cc1ccccc1F)C1CC1` gave NPYLR7 agonist 10 and NPYLR7 agonist max-min 9.
CCc1nnsc1C(=O)NC(C)c1cc(F)ccc1F (stereo unspecified) was read as NPYLR7 agonist -2 and NPYLR7 agonist max-min -4.
For CC(C)c1nccn1-c1ccc(-c2ccn[nH]2)cc1 the results were NPYLR7 agonist 5 and NPYLR7 agonist max-min 2.
C=C(C)CN(CC)c1nc(-c2ccc(Oc3ccccc3)cc2)nc2ccccc12 was read as NPYLR7 agonist 1 and NPYLR7 agonist max-min 0.
For CN(Cc1ccccc1)C1(C(=O)NCCN2CCOC2=O)Cc2ccccc2C1 the results were NPYLR7 agonist 7 and NPYLR7 agonist max-min 3.
For CCOc1ccccc1C(=O)N1CCC(c2cn(Cc3cccc(F)c3)c3ccccc23)CC1 the results were NPYLR7 agonist -2 and NPYLR7 agonist max-min -6.
For CC(=O)c1ccc(N2CCCC(CO)(CCc3ccccc3)C2)nc1 (stereo unspecified) the results were NPYLR7 agonist -1 and NPYLR7 agonist max-min -4.
CC(=O)c1cccc(NC(=O)COC(=O)c2nc(Cl)c(Cl)c(Cl)c2Cl)c1 was read as NPYLR7 agonist 19 and NPYLR7 agonist max-min 6.
Screening Cc1ccc(C2CSCCN2Cc2ccc(C#N)cc2F)cc1 (stereo unspecified) returned NPYLR7 agonist 15 and NPYLR7 agonist max-min 11.
N#Cc1c(-c2ccc3c(c2)OCO3)nc(N2CCCCC2)[nH]c1=O was read as NPYLR7 agonist -2 and NPYLR7 agonist max-min -4.
For Cc1ccc(N2CCCS2(=O)=O)cc1NC(=O)c1c(C)nc2ccccn12 the results were NPYLR7 agonist -3 and NPYLR7 agonist max-min -3.
For CC(=O)NC(CC(C)C)C(=O)N1CCN(Cc2cccc(-c3noc(-c4cccs4)n3)c2)CC1 (stereo unspecified) the results were NPYLR7 agonist 4 and NPYLR7 agonist max-min 5.
`COc1ccccc1-c1cc(C(=O)NCc2ccco2)nc2cc(C(C)(C)C)nn12` gave NPYLR7 agonist -7&19 and NPYLR7 agonist max-min 0&19.
Screening CCOC(=O)c1cc(C(C)CC(C)(C)C)sc1NC(=O)c1c(OC)cccc1OC (stereo unspecified) returned NPYLR7 agonist -7 and NPYLR7 agonist max-min -11.
For CN(CC(=O)Nc1sccc1C#N)S(=O)(=O)c1ccc(Cl)s1 the results were NPYLR7 agonist 15 and NPYLR7 agonist max-min 17.
`Nc1ccnc(Cc2ccccc2)n1` gave NPYLR7 agonist 4 and NPYLR7 agonist max-min 2.
For c1ccc(SCCNCc2ccccn2)cc1 the results were NPYLR7 agonist 3 and NPYLR7 agonist max-min 3.
For Cc1sc2nc(C(C)C)nc(N3CCN(C(=O)c4cccs4)CC3)c2c1C the results were NPYLR7 agonist -9 and NPYLR7 agonist max-min -6.

Reprinted from the part before: five entries; new compounds follow.
Screening CCOC(=O)c1cc(C(C)CC(C)(C)C)sc1NC(=O)c1c(OC)cccc1OC (stereo unspecified) returned NPYLR7 agonist -7 and NPYLR7 agonist max-min -11.
For CN(CC(=O)Nc1sccc1C#N)S(=O)(=O)c1ccc(Cl)s1 the results were NPYLR7 agonist 15 and NPYLR7 agonist max-min 17.
`Nc1ccnc(Cc2ccccc2)n1` gave NPYLR7 agonist 4 and NPYLR7 agonist max-min 2.
For c1ccc(SCCNCc2ccccn2)cc1 the results were NPYLR7 agonist 3 and NPYLR7 agonist max-min 3.
For Cc1sc2nc(C(C)C)nc(N3CCN(C(=O)c4cccs4)CC3)c2c1C the results were NPYLR7 agonist -9 and NPYLR7 agonist max-min -6.
Screening COP(=Nc1ccccc1[N+](=O)[O-])(c1ccc(C)o1)C(C)(C)C (stereo unspecified) returned NPYLR7 agonist 9 and NPYLR7 agonist max-min 6.
Screening CCCOc1ccc(-c2ccc(-c3noc(-c4cccc([N+](=O)[O-])c4)n3)cc2)cc1 returned NPYLR7 agonist -5 and NPYLR7 agonist max-min -9.
Screening CCOC(=O)N1CCN(C(=O)c2cc(-c3ccc(Cl)cc3)nc3ccccc23)CC1 returned NPYLR7 agonist -18 and NPYLR7 agonist max-min -21.
Screening CN1CCN(CCc2ccc(Cl)c(Cl)c2)CC1 returned NPYLR7 agonist -8 and NPYLR7 agonist max-min -10.
COc1ccc(OCCC(=O)N2CCCC(N(C)C)C2)cc1 (stereo unspecified) was read as NPYLR7 agonist -3 and NPYLR7 agonist max-min -3.
Screening CCc1nc(C)sc1CNC1CCCNC1 (stereo unspecified) returned NPYLR7 agonist 19 and NPYLR7 agonist max-min 14.
Cc1cccc(-n2nc(C(C)(C)C)cc2NC(=O)CN(CC(C)C)C(=O)CCc2ccccc2)c1C was read as NPYLR7 agonist 21 and NPYLR7 agonist max-min 13.
For CCN1CCCC1CNC(=O)CCC1CCN(Cc2cc(OC)ccc2O)CC1 (stereo unspecified) the results were NPYLR7 agonist 7 and NPYLR7 agonist max-min 7.
For CC(C)Cn1nccc1NC(=O)c1cc2ccccc2o1 the results were NPYLR7 agonist -6 and NPYLR7 agonist max-min -7.
CCOC(=O)c1cnn(Cc2ccccc2Cl)c1N was read as NPYLR7 agonist -8 and NPYLR7 agonist max-min -6.
O=C(CC1(O)C(=O)Nc2ccc([N+](=O)[O-])cc21)c1cccs1 (stereo unspecified) was read as NPYLR7 agonist 3 and NPYLR7 agonist max-min 2.
Screening O=C(c1ccco1)N1CCN(C(=S)NC2CC3CCC2C3)CC1 (stereo unspecified) returned NPYLR7 agonist 2 and NPYLR7 agonist max-min 23.
Screening CC(NCCC(=O)Nc1cccnc1)c1cnn(-c2ccccc2)c1 (stereo unspecified) returned NPYLR7 agonist 23 and NPYLR7 agonist max-min 9.
For Cn1cc(/C=C2/C=c3c(F)cc(Br)cc3=C2O)cn1 the results were NPYLR7 agonist 7 and NPYLR7 agonist max-min 4.
`Cc1cc(C)n(C)c(=O)c1C(=O)NCc1ccc(-c2ccccn2)s1` gave NPYLR7 agonist 5 and NPYLR7 agonist max-min -2.
Screening CN1CCC(Cc2noc(-c3cccnc3N3CCOCC3)n2)CC1 returned NPYLR7 agonist -5 and NPYLR7 agonist max-min -7.
`Cc1cccc2c(=O)c(-c3ccccc3)c(NC(=O)c3ccco3)oc12` gave NPYLR7 agonist 3 and NPYLR7 agonist max-min 0.
Screening Cc1nnc2ccc(OCCNS(=O)(=O)c3ccc(-c4ccccc4)cc3)nn12 returned NPYLR7 agonist 2 and NPYLR7 agonist max-min 3.
`C=CC[C@@]1(C)C(=O)CC[C@@]23COC[C@@H]2CCC[C@@H]31` gave NPYLR7 agonist 7 and NPYLR7 agonist max-min 4.
For CCc1c(C)nn(CC(=O)N2CCNCC2C(=O)N2CCOCC2)c1C (stereo unspecified) the results were NPYLR7 agonist 10 and NPYLR7 agonist max-min 4.

Sorted by number of heavy atoms (highest first): part of the list above
For CCc1c(C)nn(CC(=O)N2CCNCC2C(=O)N2CCOCC2)c1C (stereo unspecified) the results were NPYLR7 agonist 10 and NPYLR7 agonist max-min 4.
Screening CN1CCC(Cc2noc(-c3cccnc3N3CCOCC3)n2)CC1 returned NPYLR7 agonist -5 and NPYLR7 agonist max-min -7.
`C=CC[C@@]1(C)C(=O)CC[C@@]23COC[C@@H]2CCC[C@@H]31` gave NPYLR7 agonist 7 and NPYLR7 agonist max-min 4.

(further entries)
Screening CC(=O)N(c1ccccc1)c1nc(COC(=O)c2ccc(Cl)c(S(N)(=O)=O)c2)cs1 returned NPYLR7 agonist 1 and NPYLR7 agonist max-min 2.
`CCN1CCN(C(=O)NC(C(=O)NC2C(=O)N3C(C(=O)O)=C(CSc4nnnn4C)CSC23)c2ccc(O)cc2)C(=O)C1=O` (stereo unspecified) gave NPYLR7 agonist 29 and NPYLR7 agonist max-min 23.
For COc1ccccc1OCC1CN(C(=O)C(C)Oc2cccc(Cl)c2)CCO1 (stereo unspecified) the results were NPYLR7 agonist 5 and NPYLR7 agonist max-min 9.
Screening Cc1c(N)cccc1S(=O)(=O)NC(C)(C)C returned NPYLR7 agonist 3 and NPYLR7 agonist max-min 2.
`Cc1ccccc1N=c1scc(C)n1CCCO` gave NPYLR7 agonist -4 and NPYLR7 agonist max-min -6.
`Cc1cccc2sc(N(Cc3cccnc3)C(=O)c3ccc(S(=O)(=O)N(C)C)cc3)nc12` gave NPYLR7 agonist -2 and NPYLR7 agonist max-min 4.
COc1cccc(C(C2Sc3ncnn3C2=O)N2CC(C)CC(C)C2)c1 (stereo unspecified) was read as NPYLR7 agonist -3 and NPYLR7 agonist max-min -5.
NC(=O)c1cc2ccc(O)cc2oc1=Nc1cccc2ccccc12 was read as NPYLR7 agonist -7 and NPYLR7 agonist max-min -9.
For C=CCn1c(SCc2ccc(Cl)cc2)nc2c1c(=O)[nH]c(=O)n2C the results were NPYLR7 agonist 0 and NPYLR7 agonist max-min -2.
Screening Cc1cccc(COCC2CN(C(=O)Cc3ccccc3C)CCO2)c1 (stereo unspecified) returned NPYLR7 agonist 27 and NPYLR7 agonist max-min 32.
For CCOC(=O)c1cc(-c2ccccc2)sc1NC(C)=O the results were NPYLR7 agonist 13 and NPYLR7 agonist max-min 4.
`O=S(=O)(NCc1ccco1)c1ccc(Cl)c(Cl)c1Cl` gave NPYLR7 agonist 1 and NPYLR7 agonist max-min 1.
Cc1nc(CS(=O)(=O)C(C)c2ccc(OC(F)F)cc2)cs1 (stereo unspecified) was read as NPYLR7 agonist 9 and NPYLR7 agonist max-min 8.
`O=C1CC(c2cccc(-n3cccn3)c2)c2cnn(Cc3cccnc3)c2N1` (stereo unspecified) gave NPYLR7 agonist 0 and NPYLR7 agonist max-min -2.
`CCN(CC)c1ccc(/C=C2/SC(=Nc3ccccc3Cl)NC2=O)cc1` gave NPYLR7 agonist -6 and NPYLR7 agonist max-min -8.
For CCc1nc2ccc(C(=O)N(C)CCN(C)C)cn2c1N(C)C(=O)c1ccncc1 the results were NPYLR7 agonist 4 and NPYLR7 agonist max-min 23.
For COc1ccc(C(=O)NC(=S)Nc2cc(C(C)(C)C)ccc2O)cc1OC the results were NPYLR7 agonist 1 and NPYLR7 agonist max-min 1.

Screens from PubChem BioAssay.

A portion of the library; the hit share may differ from the screen's.
